# VDR inhibitor: blocks the human vitamin D receptor | VDR-SRC2-3 peptide fluorescence polarization, 2 h | Potency, µM, without a hit: max response, negative = inhibition, usual class: inhibitors | 400,000 compounds, 0.93% hits; active = well fitted inhibition curve with a large enough effect; inconclusive = small, poorly fitted or top-dose-only effect, or another doubt; inactive = no such curve, though single readings can be large or run the other way; also: series mostly up to about 120 µM
# Target sequence (P11473 whole entry, looked up): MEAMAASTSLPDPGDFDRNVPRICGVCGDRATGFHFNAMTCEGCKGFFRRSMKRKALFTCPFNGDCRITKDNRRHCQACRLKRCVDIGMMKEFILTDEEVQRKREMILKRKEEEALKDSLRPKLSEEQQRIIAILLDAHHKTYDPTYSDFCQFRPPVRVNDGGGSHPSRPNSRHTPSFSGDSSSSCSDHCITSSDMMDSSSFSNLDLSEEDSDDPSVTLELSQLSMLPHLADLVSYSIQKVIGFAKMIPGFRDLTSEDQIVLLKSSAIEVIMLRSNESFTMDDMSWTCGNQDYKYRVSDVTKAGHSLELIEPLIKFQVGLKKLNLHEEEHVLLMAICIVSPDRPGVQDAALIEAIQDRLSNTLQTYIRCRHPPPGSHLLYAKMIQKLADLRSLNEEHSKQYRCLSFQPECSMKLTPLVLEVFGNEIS
#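 Fluorescence polarization assay of small-molecule disruption of VDR binding to coregulator peptide SRC2-3. Compounds and controls pin-transferred, then read after 2 h incubation at ambient room temperature.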
# The depositor's hits bear a star; ? = inconclusive; [ ] = remark or other dose. % is scaled to controls: 0 for no effect and ±100 for the full control effect; potency is read from the fitted curve at half-maximal effect. Only part of the results is shown; count on the stated rates, not on these rows.
SMILES,VDR inhibitor
CCn1c(SCc2ccccc2)nnc1-c1ccc(S(=O)(=O)N2CCCCC2)cc1,15.1%
COC(=O)c1cccc([N+](=O)[O-])c1CS(=O)(=O)c1ccc(C)cc1,-3.9%
O=C(Nc1ccnn1C1CCN(C2CCC2)CC1)c1ccccc1Cl,-2.1%
CC1=CC(C)(C)Nc2ccc(OS(=O)(=O)c3ccc(C)cc3)cc21,-7.3%
COc1ccc(CCNS(=O)(=O)c2ccc(S(=O)(=O)N3CCCC3)cc2)cc1OC,-0.1%
COCCCNC(=O)C1CCN(Cc2nc(-c3ccc(OC)c(OC)c3)oc2C)CC1,-12.3%
Nc1nnc(SCC(=O)Nc2cccc(S(N)(=O)=O)c2)s1,12.6%
O=C1/C(=C/c2ccc3c(c2)OCO3)Oc2cc(OCC(=O)N3CC(O)C[C@H]3C(=O)O)ccc21 (stereo not given in full),-21.3%
CC(=NNC(=O)c1cccs1)c1ccc2c(c1)OCCO2,-2.0%
Cc1nc2ccccn2c1C(=O)NN=C1CCCC1,-19.2%
Cc1nn(-c2ccccc2)c2c1cc1c(=O)n(C)c(=O)nc-1n2-c1ccccc1F,4.1%
COc1ccc(NC(=O)c2c(-c3c(Cl)cccc3Cl)noc2C)cn1,11.6%
COc1ccc(S(=O)(=O)N2CCCCC2)cc1NC(=O)c1ccc2ccccc2n1,-0.2%
COC(=O)c1sc2nc3c(cc2c1N)C(=O)CC(C)(C)C3,-7.4%
CS(=O)(=O)Nc1cccc(-c2nc(NCc3cccnc3)c3ccccc3n2)c1,-2.6%
COc1ccc(OC)c(NC(=O)COC(=O)c2ccc(S(=O)(=O)N3CCOCC3)cc2)c1,4.2%
CCOc1c2c(c(-c3ccc4c(c3)OCO4)c3cc(OC)c(OC)cc13)C(=O)OC2,-12.2%
CN(c1ccc(F)cc1)S(=O)(=O)c1ccc(Cl)c(C(=O)NCC(c2ccco2)N2CCCCC2)c1 (stereo not given),-7.4%
O=C(NCCOc1ccccc1)C1CCC(=O)N(CCN2CCOCC2)C1 (stereo not given),-21.7%
Cc1c(C(=O)Nc2ccc(F)cc2)cn2c(nc3ccccc32)c1C#N,2.5%
N#Cc1c2c(c[nH]c1=O)CCN2Cc1ccccc1,6.4%
CC1(C)CC1C(=O)N/C(=C/CCCCSCC(N)C(=O)O)C(=O)O (stereo not given),-16.1%
COc1ccccc1NC(=O)CC(=O)c1cccc([N+](=O)[O-])c1,1.5%
COc1ccc(OC)c(S(=O)(=O)N2CC=C(c3c(C)n(CC(=O)N4CCCC4)c4ccccc34)CC2)c1,-2.4%
O=C(CSc1nc2c([nH]c3ccccc32)c(=O)n1-c1ccc(F)cc1)N1CCCc2ccccc21,6.3%
CCN1CCN(CC#CCOc2ccccc2OC)CC1,-19.8%
Cc1ccc(CN=c2c([N+](=O)[O-])nn(-c3cccc(C)c3)n2O)cc1,-12.4%
O=C1CCCN1CCC1CCN(C2CC(=O)N(Cc3ccc(N4CCCC4=O)cc3)C2=O)CC1 (stereo not given),8.7%
CCOC(=O)Cn1c(=O)oc2cc(S(=O)(=O)Nc3cc(Cl)ccc3OC)ccc21,4.1%
COc1ccc(N2CCN(C(C)C(=O)N(C)Cc3ccccc3)CC2)cc1 (stereo not given),4.9%
O=S(=O)(c1ccccc1)N1CCN(c2ncnc3scc(-c4ccccc4)c23)CC1,?
Cc1cc(SC(C)C(=O)NCC(=O)Nc2ccc(F)c(F)c2F)nc2ccccc12 (stereo not given),-6.0%
COc1ccccc1-n1c(/C=C/c2c(C)n(C)c3ccccc23)nc2ccccc2c1=O,?
Brc1ccccc1Cn1cnc2ccccc21,-7.7%
CCOC(=O)C(=Cc1ccccc1OC)C(=O)OCC,?
CCOC(=O)CN1C(=O)SC(Nc2ccc(C)cc2)C1=O (stereo not given),-5.3%
COc1ccccc1C(=O)NC1CCN(C(=O)Nc2ccc(F)cc2)CC1,8.6%
COCCCN(C(=O)c1cc(-c2ccco2)nc2ccccc12)c1c(N)n(Cc2ccccc2)c(=O)[nH]c1=O,-1.1%
COc1ccc(CCNC(=O)CC(NS(=O)(=O)c2ccc(NC(C)=O)cc2)C(C)C)cc1OC (stereo not given),17.8%
COc1ccc2c(CC(=O)Nc3ccc(OC)c(S(=O)(=O)N4CCOCC4)c3)coc2c1,-10.9%

# An excerpt of these results, bar-delimited:
SMILES | VDR inhibitor
N#Cc1c2c(c[nH]c1=O)CCN2Cc1ccccc1 | 6.4%
CC1(C)CC1C(=O)N/C(=C/CCCCSCC(N)C(=O)O)C(=O)O (stereo not given) | -16.1%
COc1ccccc1NC(=O)CC(=O)c1cccc([N+](=O)[O-])c1 | 1.5%
COc1ccc(OC)c(S(=O)(=O)N2CC=C(c3c(C)n(CC(=O)N4CCCC4)c4ccccc34)CC2)c1 | -2.4%
O=C(CSc1nc2c([nH]c3ccccc32)c(=O)n1-c1ccc(F)cc1)N1CCCc2ccccc21 | 6.3%

# (next part)
SMILES,VDR inhibitor
Cc1cc(C)c(NC(=O)CCCN2CCN(C)CC2)c(C)c1,-2.1%
CCCCN1C(=O)CC(Nc2ccc(CC)cc2)C1=O (stereo not given),4.5%
COc1ccc(/C=N/NC(=O)c2ccc(NC(=O)c3cccc([N+](=O)[O-])c3)cc2)c(C(=O)O)c1OC,21.2%
Cc1ccccc1-n1ncc(C(C)NS(=O)(=O)c2sccc2C)c1C (stereo not given),4.4%
CSc1nc2c(c(=O)[nH]1)C(c1ccccc1)C1=C(CC(C)(C)CC1=O)N2 (stereo not given),-2.2%
O=C(NNC1=NCCC1)c1cccc(Br)c1,-7.8%
Brc1ccc(C=Nc2ccc(Nc3ccccc3)cc2)s1,-18.3%
COc1cccc(C(=O)N(Cc2nc(-c3ccc(Cl)cc3)no2)C(C)C)c1OC,-6.7%
O=C(NCCc1c[nH]c2ccccc12)N[C@@H](Cc1ccccc1)C(=O)O,-16.3%
CC(C)Cn1c(-c2ccc(S(=O)(=O)N3CCOCC3)cc2)csc1=Nc1cc(Cl)ccc1Cl,-1.3%
CC(C)CCN1CCN(Cc2cccn2-c2cccnc2)CC1CCO (stereo not given),?
O=C(CSc1ccccc1)NCc1ccc2c(c1)CCN2C(=O)c1ccc(F)cc1,6.6%
O=c1c2oc3ccccc3c2n(Cc2ccccc2)c(=O)n1Cc1ccco1,0.5%
CCc1ccc(CNC(=O)C(CC)n2nc(C)c3c(C)n(-c4ccccc4)nc3c2=O)cc1 (stereo not given),8.3%
CCOC(=O)c1ccccc1NC(=S)N1CCN(C2CCCCC2)CC1,6.3%
O=C(NN=Cc1ccc(F)c(F)c1)c1ccc(NS(=O)(=O)c2cccs2)cc1,7.7%
CCOC(=O)c1sc(S(C)(=O)=O)c2c1CC(C)(C)C/C2=N/O,-18.3%
CCOc1ccc(-c2cc3c(=O)n(Cc4nc(-c5cccc(OC)c5OC)oc4C)ccn3n2)cc1Cl,2.9%
OCCNc1ncnc2c1ncn2Cc1ccccc1,3.7%
Cc1ccc(C(=O)NC(=S)Nc2ccccc2C(F)(F)F)c(C)c1,11.9%
COc1ccc(CNS(=O)(=O)c2ccc(F)c(C(=O)Nc3ccc(OC)cc3)c2)cc1,-8.7%
CCOC(=O)C1CCN(S(=O)(=O)c2cccc(C(=O)Nc3ccccc3)c2)CC1,-6.1%
CCOC(=O)/C(O)=C(\C#N)c1nc2ccccc2[nH]1,-7.1%
COc1ccc(CCC(=O)OCC(=O)Nc2sccc2C#N)cc1,-5.0%
O=Cc1ccsc1B(O)O,2.4%
COc1ccccc1-c1ccc2ncnc(N3CCNCC3)c2c1,-21.8%
O=C(Nc1ccccc1NS(=O)(=O)c1ccc(F)cc1)C1CCC1,0.7%
COc1ccc(NC(=O)c2c(C)noc2-c2snnc2C)cc1,2.6%
COc1ccc(CNC(=O)C2=C(C)C(=O)OC23CCCCC3)cc1,1.0%
NCCC[C@@H](CC(=O)N[C@@H]1CCNC[C@H]1C(=O)N[C@H](CC(=O)N[C@@H](CCC(=O)O)CC(=O)O)Cc1c[nH]c2ccccc12)NC(=O)C[C@H](Cc1c[nH]c2ccccc12)NC(=O)[C@@H]1CCCC[C@H]1N,8.7%
CCOC(CNC(=O)c1cc2c(=O)n(CC)c3ccccc3c2s1)OCC,-2.3%
Cc1nc(-c2ccccc2)sc1C(=O)/C=C/c1ccc(Cl)cc1,?
C/C=C(\NC(C)=O)c1ccccc1,-7.7%
O=C(O)CC(C(=O)NCc1ccccc1)C1CCCO1 (stereo not given),25.7%
Cc1cccc(CCNCc2c(C(=O)O)c(C)n(-c3ccccc3)c2C)c1,-11.9%
CCC1CN(C(=O)N2CCC(C(=O)NCCN(CC)CC)CC2)c2cc(C)ccc2O1 (stereo not given),0.6%
COc1ccc(CN(C(=O)CCC(=O)N2CCCCC2)c2nccs2)cc1OC,-2.9%
COc1cc(S(=O)(=O)Nc2cccc3cn[nH]c23)c(OC)cc1C,9.1%
CCCCNC(=O)c1onc(CSc2ccc(Cl)cc2)c1C(=O)NCCCC,-10.5%
Cc1noc(C)c1NC(=O)N(C)C[C@H]1Oc2ccc(NC(=O)c3ccncc3)cc2C(=O)N([C@H](C)CO)C[C@@H]1C,-16.7%
Cc1ccc(S(=O)(=O)N2CCN(C(=O)COC(=O)CCOc3ccccc3C)CC2)c(C)c1,7.8%
COc1cccc(NC(=O)Nc2cc(C(=O)NC(C)C)ccc2N2CC3CC(C2)c2cccc(=O)n2C3)c1 (stereo not given),-23.7%
CC(=O)N1C=CN(C(C)=O)C(c2cn(C)c3ccccc23)C1c1cn(C)c2ccccc12 (stereo not given),10.2%
CCC(C)(C)n1nnnc1CN1CCN(c2nc3ccc(C)cc3cc2C#N)CC1,9.2%
COc1ccc(CCNC(=O)COc2ccc([N+](=O)[O-])cc2)cc1,28.2µM*
CC(NC(=O)COC(=O)c1cc([N+](=O)[O-])ccc1N1CCOCC1)c1ccc(F)cc1 (stereo not given),10.6%
c1ccc(CN2CCN(Cc3cn4cccnc4n3)CC2)cc1,39.9%[activator]
Cc1cccc(/C=C/c2onc(C)c2S(=O)(=O)N2CCC(C(=O)NC(C)C)CC2)c1,1.8%
C[C@@]12CCC=C[C@H]1[C@H](c1ccc(F)c(/C=C/c3ccccc3)c1)N(Cc1ccccc1)C2=O,5.7%
O=C(CN1C(=O)NC2(CCCC2)C1=O)Nc1ccc(Cl)c(C(F)(F)F)c1,3.6%
COc1ccc2c(C)c(CC(=O)N3CCN(C(=O)C4COc5ccccc5O4)CC3)c(=O)oc2c1 (stereo not given),1.5%
Cc1csc(SCC(=O)NCc2cccc(Cl)c2)n1,-18.0%
Cc1cccc(-c2noc(-c3ccccc3C(=O)NCC3CCCO3)n2)c1 (stereo not given),-8.0%
CCN(CC)CCCN1C(=O)C(=O)/C(=C(/O)c2cc(C)ccc2C)C1c1cccnc1 (stereo not given),13.7%
COc1ccc(/C(N)=N/OC(=O)CC2CCCCC2)cc1OC,10.1%
CC(C)C[C@H](NC(=O)c1[nH]cnc1C(=O)N[C@@H](C)C(=O)OC(C)(C)C)C(=O)OC(C)(C)C,-6.1%
CC1=NN(C(=O)c2ccc(C)o2)C(O)(c2ccccc2)C1 (stereo not given),-6.2%
Cc1[nH]c2ccccc2c1C(=O)CN1CCCCC1CCO (stereo not given),1.7%
COc1c(C)cc(S(=O)(=O)N2CCCC2)c(C)c1C,-14.0%
Cn1c(=O)c2c(nc(CN3CCN(c4ccccc4F)CC3)n2CCN2CCOCC2)n(C)c1=O,6.8%

# Some of the entries above in a different format:
SMILES	VDR inhibitor
Cn1c(=O)c2c(nc(CN3CCN(c4ccccc4F)CC3)n2CCN2CCOCC2)n(C)c1=O	6.8%
COc1ccc(CCNC(=O)COc2ccc([N+](=O)[O-])cc2)cc1	28.2µM*
CC(NC(=O)COC(=O)c1cc([N+](=O)[O-])ccc1N1CCOCC1)c1ccc(F)cc1 (stereo not given)	10.6%
CC1=NN(C(=O)c2ccc(C)o2)C(O)(c2ccccc2)C1 (stereo not given)	-6.2%
O=C(CN1C(=O)NC2(CCCC2)C1=O)Nc1ccc(Cl)c(C(F)(F)F)c1	3.6%
Cc1ccc(S(=O)(=O)N2CCN(C(=O)COC(=O)CCOc3ccccc3C)CC2)c(C)c1	7.8%
CC(=O)N1C=CN(C(C)=O)C(c2cn(C)c3ccccc23)C1c1cn(C)c2ccccc12 (stereo not given)	10.2%

# Next entries follow:
SMILES,VDR inhibitor
CNc1ccc(-c2nc(-c3ccncc3)no2)cc1[N+](=O)[O-],18.0%
O=C(COC(=O)CCS(=O)(=O)c1ccc(Cl)cc1)Nc1ncc(Cl)cc1Cl,14.5%
CCOCCCN(Cc1ccco1)S(=O)(=O)c1cc2c(cc1C)NC(=O)CO2,11.8%
CCOC(=O)C1CCN(CC(=O)Nc2c(C(=O)OC)[nH]c3cccc(Cl)c23)CC1,13.6%
CCOC(=O)c1ccc(S(=O)(=O)NCCN(CC)CC)cc1,8.1%
Cc1c(N=C2SCC(=O)N2c2c(C)n(C)n(-c3ccccc3)c2=O)c(=O)n(-c2ccccc2)n1C,-3.5%
Cc1cccc(-c2nn3c(=O)cc(CN4CCN(C(=O)c5ccccc5Br)CC4)nc3s2)c1,12.2%
Cc1ccn2c(NCc3ccccc3)c(-c3cccc(SC4CCCCC4)c3)nc2c1,-14.7%
Cn1ccnc1COc1ccc(C=O)cc1,-4.3%
NC(=O)C1CN(C(=O)c2cccc(S(=O)(=O)N3CCc4ccccc43)c2)c2ccccc2O1 (stereo not given),5.4%
O=C(O)C1CC(=O)N(Cc2ccc(F)cc2)C1 (stereo not given),-12.1%
Cc1cccc(C)c1NC(=O)CSc1nnc(NC(=O)c2ccccc2C(=O)O)s1,-8.8%
CCN(Cc1cc2ccccc2[nH]c1=O)C(=O)C(C)C,-0.3%
CCOC(=O)c1cc(C(O)(C(F)(F)F)C(F)(F)F)c(/N=C/N(C)C)o1,6.5%
CCCSc1ccc([C@H]2N[C@@](CC(C)C)(C(=O)OC)[C@H]3C(=O)N(CC)C(=O)[C@@H]23)cc1,10.6%
O=C(c1ccc([N+](=O)[O-])cc1)N1CCN(c2ncccn2)CC1,3.7%

# Source: PubChem (National Center for Advancing Translational Sciences (NCATS))
